Compound activity (PubChem BioAssay)
NPYLR7 ag: mosquito NPYLR7 agonism; HEK293T NPYLR7/Galpha15, GCaMP6s calcium fluorescence; activation, % at 10 µM; 0.15% of 270,000 active; AID 1259423; in the data active = activation above about 40%;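 note: 0% = vehicle and 100% = reference agonist at the receptor; some compounds past the cut are filed as inactive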
NPYLR7 ag max-min: second read-out of NPYLR7 ag, no call of its own (marks repeat the call); activation, %; measured here: Max-Min RFU normalised activation; some inactives read as strong as hits;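 span of the calcium signal over five minutes; 0% = vehicle and 100% = native peptide agonist; compound fluorescence can raise it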
Numbers without * were called inactive; & = joins results of further samples. This is a subset (hit frequency here may not be typical).

Values run as follows: NPYLR7 ag	NPYLR7 ag max-min
Cc1cc(C)nc(N/N=C2/CCCCC2C)n1 (stereo not drawn)
→ 4	4
Cc1c(Cl)cccc1NC(=O)NCC1(O)CCCNCC1 (stereo not drawn)
→ 8	4
Cc1ccc(CN2C(=O)C(C)ON=C2c2ccc(N(C)C)cc2)cc1 (stereo not drawn)
→ 9	9
CCn1c(CNc2ccc(N3CCN(C)CC3)cn2)nc2ccccc21
→ 25	22
c1ccc2c(c1)ncn2CCC1CCCCC1
→ 0	5
CCOC(=O)c1nn(-c2ccccc2C)c(=O)cc1OS(=O)(=O)c1cc(C)c(OC)cc1C
→ 3	1
N#Cc1nc2c(S(=O)(=O)c3ccc(Cl)cc3)c(N)n(Nc3cccc(Cl)c3)c2nc1C#N
→ 0	-5
Cc1ccc(-n2ncc3c(=O)n(NC(=O)c4ccc(C)c([N+](=O)[O-])c4)cnc32)cc1C
→ 5	3
CCOC(=O)Cc1csc(NC(=O)c2ccc(C)cc2)n1
→ -9	-12
Cc1nc(S(=O)(=O)N2CCN3CCCC3C2)cn1C (stereo not drawn)
→ 7	1
Cc1ccc(F)c(Oc2cc(N3CCN(C(=O)COCc4ccccc4)C(C)C3)ncn2)c1 (stereo not drawn)
→ -10	-4
CC(=O)N1CCc2cc(Br)cc(S(=O)(=O)CCC(=O)N3CCCc4ccccc43)c21
→ -4	-4
CCc1nc2n(n1)C(=O)C(C(c1ccccc1)N1CCC3(CC1)OCCO3)S2 (stereo not drawn)
→ -2	-8
COc1ccc(C=CC(=O)C=Cc2ccc(OC)cc2)cc1
→ 6	9
Cc1ccc(-c2cc(C(F)(F)F)n3ncc(C(=O)NCc4ccccc4Cl)c3n2)cc1
→ 0	-2
CCSCCOC(=O)C1=C(C)NC(=O)NC1c1ccccc1Br (stereo not drawn)
→ 3	1
COc1cc(OC)c(NC(=O)c2cc(-c3ccco3)nc3onc(C)c23)cc1Cl
→ -5	-9
CC(=O)N1CCC(N2CCN(c3nc(-c4ccccc4)nc4c3CCC4)CC2)CC1
→ 1	1
CCCn1c(C)cn2c3c(=O)n(Cc4ccc(Br)cc4)c(=O)n(C)c3nc12
→ 6	4
COc1ccc(Br)c(C(=O)N2CCCC2(C)C(=O)NCC(C)C)c1 (stereo not drawn)
→ 5	-1

Values run as follows: NPYLR7 ag	NPYLR7 ag max-min
COc1ccc(C2SCC(=O)N2CCN2CCN(C(=O)C3CC3)CC2)cc1OC (stereo not drawn)
→ 23	26
Cc1nnc(SCc2nc(N)c3ccccc3n2)s1
→ 1	0
O=C(C1C[C@@H]1c1ccccc1)N(Cc1ccco1)Cc1nc2cc(Cl)ccc2o1 (stereo partly drawn)
→ 15	18
CCOc1ccccc1-c1ncnc2scc(C)c12
→ 3	2
CC(C)CC(O)C(=O)N1CCn2nc(C(=O)Nc3ccccc3)cc2C1 (stereo not drawn)
→ 4	-2
C=c1oc(C)cc1=C1NN=C(CCC(=O)NC(c2cccnc2)C(F)(F)F)O1 (stereo not drawn)
→ 21	11
Cc1cccc(-c2cn[nH]c2C2CCN(C(=O)C3=NNC(=O)CC3)CC2)c1
→ 9	6
Cc1ccc(-c2c[nH]n3c(=O)cc(C(C)(C)C)nc23)cc1
→ 7	4
Cc1cc(NC(=O)Cc2ccc3c(c2)OCO3)n(-c2nc3ccccc3s2)n1
→ -8	-14
O=C(Cn1cnc2c(nnn2-c2cccc(F)c2)c1=O)N1CCN(c2ccccc2)CC1
→ -6	-9
Cc1ccc(Cl)cc1N1CCN(c2ccc(S(=O)(=O)C3CCCCC3)nn2)CC1
→ 0	-5
COc1cc(OC)cc(C(=O)Oc2ccc(-c3nc4ccccn4c3NC(C)(C)CC(C)(C)C)cc2OC)c1
→ -1	7
CC1CCCN(C(=N)N)C1 (stereo not drawn)
→ 2	9
CN(Cc1ccncc1)C(=O)C1CC(=O)N(C)c2ccccc21 (stereo not drawn)
→ 5	4
O=C(O)CN1C(=O)/C(=C2/C(=O)N(CC(=O)O)c3ccccc32)SC1=S
→ 2	-1
COc1ccc(NC(=O)CNc2cc3c(cc2Cl)OCCCO3)cc1Cl
→ 5	5
O=C(NCc1ccncc1)c1csc(COc2ccc(F)cc2F)n1
→ 9	3
Cc1ccccc1CN(C)CC(=O)Nc1cccnc1
→ 6	4
O=C(NCc1cccc(C(F)(F)F)c1)c1ccc(CSc2nnc(Cc3ccccc3)n2-c2ccc(F)cc2)cc1
→ 20	20
O=C(c1cc(Cl)ccc1F)N1CCC(Nc2ccccc2)CC1
→ 1	3

Values run as follows: NPYLR7 ag	NPYLR7 ag max-min
Cc1ccc2cc(C3CC(c4ccc(Br)cc4)=NN3C(=O)CCC(=O)O)c(=O)[nH]c2c1 (stereo not drawn)
→ -8	-12
COc1cc(C#N)cc(Cl)c1O
→ 5	10
COC(=O)Cn1c(SCCOc2ccccc2Cl)nc2ccccc21
→ -2	6
CCCN1CCC(C)(C(=O)Nc2cccc3cccnc23)C1 (stereo not drawn)
→ 2	1
Cc1ccc2nc(SCC#N)nc(=O)n2c1
→ 2	3
O=c1cc(CN2CCCCC2c2ccccn2)nc2ccc(Cl)cn12 (stereo not drawn)
→ 1	-8
Cc1ccc(C)c(NC(=O)CSc2c(CC(C)C)cnc3c2c(=O)n(C)c(=O)n3C)c1
→ 11	15
COc1c(F)cccc1C(=O)Nc1cccc(C(=O)NC(C)(C)C)c1C
→ 14	10
CCCCN1CCCCC1(C)C(=O)NCc1cccc(OC)c1 (stereo not drawn)
→ 7	3
CNC(=O)Cn1nc(-c2ccc(F)cc2)c2sc(C)nc2c1=O
→ 1	0
COC(=O)CCCCC(=O)N1CCC(n2c(=O)oc3ccc(Cl)cc32)CC1
→ 24	16
O=C(c1ccncc1)N1CCC(n2c(Cc3ccccc3)nc3ccccc32)CC1
→ 0	6
Cc1cc(C)cc(COc2coc(CN3CCN(S(=O)(=O)c4ccc(OC(F)(F)F)cc4)CC3)cc2=O)c1
→ 3	-1
O=C(CCc1ccsc1)N1CCCC1c1ccc(O)cc1 (stereo not drawn)
→ -5	-7
C#CCSc1ncnc2nc[nH]c12
→ 4	5
COCCNC(=O)c1coc(CN(Cc2ccc(F)cc2F)C(C)c2ccccc2)n1 (stereo not drawn)
→ 13	14
CCn1ccnc1-c1nccn1Cc1ccccc1OC
→ 8	-1
COCCNC(=O)CCN1C(=O)CSC1c1ccccc1Cl (stereo not drawn)
→ 20	26
O=C(NCc1ccccc1Cl)c1ccc(-c2cc(-c3cccc(C(F)(F)F)c3)n[nH]2)cc1
→ 23	10
COc1ccc(C2=Nc3nnnn3C(c3cccc4ccccc34)C2)cc1 (stereo not drawn)
→ 3	3

canonical_smiles	NPYLR7 ag	NPYLR7 ag max-min
CCCN1CCCN(C(=O)c2cc(CN3CCOCC3)on2)CC1	2	-5
Fc1ccc(CC2CCN(Cc3nc(Cc4cccc(F)c4)no3)CC2)cc1	2	-1
CCN(CC)S(=O)(=O)c1ccc(NC(=O)CN2CCOCC2)cc1	0	24
COC(=O)c1cn(C(=O)c2ccccc2)c2ccccc12	0	-3
COc1ccccc1-c1ncc(CN2CCCC2c2ccccn2)s1 (stereo not drawn)	14	3
O=C(Nc1ccccc1Oc1cccnc1)C1CCCN(C(=O)/C=C/c2ccccn2)C1 (stereo not drawn)	3	4
Cc1ccccc1NC(=O)Nc1nn(Cc2ccc(C(F)(F)F)cc2)c2ccccc12	12	13
COc1ccc(NC(=O)CCC(=O)N2CCc3c([nH]c4ccccc34)C2)cn1	-6	-12
O=S(=O)(Nc1cccnc1)c1ccc(Br)c2ccccc12	1	4
Cc1ccc(C)c(C2=CSC3=NS(=O)(=O)CCN23)c1	1	-1
N#CCSc1ccc(-c2cccnc2)nn1	11	7
CCOC(=O)C1CSC(CC(=O)Nc2ccc(C)cc2C)C(=O)N1 (stereo not drawn)	5	4
O=C(c1cccs1)c1coc2ccc(Cl)cc2c1=O	-1	-1
CC(Sc1ccccn1)C(=O)NCc1cccnc1N1CCN(C)CC1 (stereo not drawn)	2	-4
CC(NC(=O)c1ccc(S(=O)(=O)NCc2ccco2)cc1)c1ccc(S(N)(=O)=O)cc1 (stereo not drawn)	-8	-11
O=C(CSc1ccc2nnc(-c3ccncc3)n2n1)NC1CCCC1	-1	-1
CCc1noc(CN(CC(N)=O)CC(C)C)n1	13	11
CSc1ccccc1NC(=O)CCC(=O)NC[C@H]1CCCC[C@H]1O	-5	-10
Cc1nc2n(n1)C(=O)C(C(c1ccc(Cl)c(Cl)c1)N1CCN(C)CC1)S2 (stereo not drawn)	-1	-3
C=CCn1c(SCc2ccc(C(=O)NC3CC3)cc2)nnc1-c1cccc(OC)c1	-2	6
CCOC(=O)C(Cc1ccccc1)N(Cc1ccc(C(F)(F)F)cc1)C(=O)C1CCN(C(=O)OC(C)(C)C)CC1 (stereo not drawn)	1	-3
COCCN(CC(=O)Nc1cc(-c2ccccc2)nn1-c1ccccc1)C(=O)c1ccc(OC)cc1OC	7	7
Cc1nnsc1CN(C)Cc1c(C)n(C)n(-c2ccccc2)c1=O	4	1
CCOc1ccccc1NC(=O)CCNC1CCS(=O)(=O)C1 (stereo not drawn)	2	-1
CCOC(=O)CC(=O)N1CCC2(CC1)[C@H](C(=O)OCC)[C@@H](OC)C(=O)N2C	3	9

Given with each value named: part of the list above
SMILES: O=C(CSc1ccc2nnc(-c3ccncc3)n2n1)NC1CCCC1
  NPYLR7 ag: -1 | NPYLR7 ag max-min: -1
SMILES: CCc1noc(CN(CC(N)=O)CC(C)C)n1
  NPYLR7 ag: 13 | NPYLR7 ag max-min: 11
SMILES: CSc1ccccc1NC(=O)CCC(=O)NC[C@H]1CCCC[C@H]1O
  NPYLR7 ag: -5 | NPYLR7 ag max-min: -10
SMILES: Cc1nc2n(n1)C(=O)C(C(c1ccc(Cl)c(Cl)c1)N1CCN(C)CC1)S2 (stereo not drawn)
  NPYLR7 ag: -1 | NPYLR7 ag max-min: -3

(next part)
canonical_smiles	NPYLR7 ag	NPYLR7 ag max-min
COc1ccc(Cl)cc1Cn1c(C)c(C(=O)NCc2cccc([N+](=O)[O-])c2)sc1=O	-2	-4
Cc1ccc(N2C(N)=NC(N)=NC2(C)C)cc1	2	6
COc1cccc(COC2CCCN(C(=O)c3cccc(Br)c3)C2)c1 (stereo not drawn)	-7	0
Cc1ccc(NC(=O)Cn2c(=O)n(Cc3ccco3)c(=O)c3sc4ccccc4c32)cc1	2	-4
COc1cccc(Cc2nsc(N3CCC(CNC(=O)c4cccc([N+](=O)[O-])c4)CC3)n2)c1	-5	-11
COc1ccc(C)cc1NC(=O)C(NCC1CCCO1)c1ccccc1 (stereo not drawn)	-3	-3
Cc1ccc(OCC(=O)NNC(=O)c2cc3ccccc3o2)cc1	1	8
Cc1cnc2c(c1NCCCn1ccnc1)c(=O)n(C)c(=O)n2C	10	5
COc1ccc(Br)cc1C=CC(=O)NCC1COc2ccccc2O1 (stereo not drawn)	23	9
CN(Cc1ccoc1)Cc1cccc(C(=O)Nc2ccc3c(c2)COC3)c1	-1	-3
CSCCC(NC(=O)c1ccco1)C(=O)NCC1CCCCC1 (stereo not drawn)	3	1
O=C(NCC1(c2ccccc2)CCOCC1)c1cn(Cc2ccc(Cl)cc2)nn1	5	-3
CCOCCn1c(=O)c2c(nc3n(CCOCC)c(C)cn23)n(C)c1=O	-1	10
CCNC(=S)N1CCC(C(NC(=O)c2ccc(F)cc2)C(=O)N(CC)CC)CC1 (stereo not drawn)	-2	-1
CC(=NNC(=O)c1ccc(Cl)cc1)C1CC1	2	-2
CCCCCCCC(=O)N(CC(=O)Nc1cc(C(C)(C)C)nn1-c1ccc(C)cc1)Cc1ccccc1	8	9
COC(=O)C1=C(C)N(C2CCS(=O)(=O)C2)C(=O)NC1c1ccc(Cl)cc1Cl (stereo not drawn)	12	5
Cc1ccc(C)c(OCC(=O)N2CCN(S(=O)(=O)c3ccc(F)cc3)CC2)c1	-12	-12
Cc1cccc(Cn2c(C(=O)NC3CC4CCC3C4)cc3ccoc32)c1 (stereo not drawn)	-3	-4
Cc1oc(-c2ccccc2)nc1CN1CCCC(O)(C(F)(F)F)C1 (stereo not drawn)	0&-2	-1&-4
C=CCC(C)(C)CN(C)Cc1ncc[nH]1	0	2
N#Cc1c2c(n(-c3ccccc3)c1NC(=O)CCl)CCCC2	-4	2
CCCNC(=O)c1cnn2c1NC(c1ccc3c(c1)OCO3)CC2C(F)(F)F (stereo not drawn)	1	-6
CCS(=O)(=O)N(Cc1ccccc1OC)c1ccc(OC)cc1	4	1
Cc1ccc(-c2ccc(-c3nnco3)cc2)c(-n2cccn2)c1	-4	-4

canonical_smiles	NPYLR7 ag	NPYLR7 ag max-min
COCCNC(=O)[C@H]1C[C@@H](O)[C@H](O)[C@@H]2N=C(Nc3cccc(C(F)(F)F)c3)S[C@@H]21	-8	-16
Cc1cc(NCCC(C)C)n2nc(C)c(-c3ccc(Cl)cc3)c2n1	1	0
CN(Cc1nccs1)c1ccc(-c2nc(-c3ccccc3F)no2)cn1	15	4
N#C/C(=C\N1CCC(C(N)=O)CC1)C(=O)Nc1cccc(Cl)c1	5	1

Structural class, those above containing two or more sulfur atoms (4)
canonical_smiles	NPYLR7 ag	NPYLR7 ag max-min
Cc1nnc(SCc2nc(N)c3ccccc3n2)s1	1	0
O=C(O)CN1C(=O)/C(=C2/C(=O)N(CC(=O)O)c3ccccc32)SC1=S	2	-1
Cc1ccc(C)c(C2=CSC3=NS(=O)(=O)CCN23)c1	1	-1
CC(NC(=O)c1ccc(S(=O)(=O)NCc2ccco2)cc1)c1ccc(S(N)(=O)=O)cc1 (stereo not drawn)	-8	-11
